YopH PTP inh = YopH tyrosine phosphatase inhibitors, primary screen, biochemical, fluorescence Ex485/Em525 | YopH tyrosine phosphatase [Yersinia enterocolitica] | inhibition, %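 (about 10 µM by stock and volumes)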 | 140,000 tested, 0.16% active | AID 898, 2007;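 active means inhibition of 50% or more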;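 further: controls were vehicle for no effect and minimum signal wells for full effect; inactives centre near -20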
Mtb betalactam = beta-lactam sensitization of Mtb H37Rv, H37Rv. AID 434955, 2010. M. tuberculosis H37Rv growth with meropenem, percent inhibition; hits of this screen are not shown here. 330,000 tested, 0.27% active. inhibition, % at 25 µM;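 active means about 74% or more and at least 40 points above the plate without the antibiotic, then above 30% in a dose series; inconclusive means first-round hits that could not be retested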;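 further: growth measured after seven days incubation then overnight dye step; 0% = bacteria only wells and 100% = bacteria with antibiotic; twin plates without the antibiotic show which effects depend on it; some results filed as inactive read as strong as hits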
RecA splice inh = Mtb RecA intein splicing inhibitors, primary screen, biochemical, fluorescence, HTS; Protein RecA (Mycobacterium tuberculosis (strain ATCC 25618 / H37Rv)), P9WHJ3; cell-free RecA intein splicing; 290,000 tested, 0.75% active; AID 2221, 2009; inhibition, %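 (about 9 µM by stock and volumes)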; in the data active means inhibition above about 30%; inconclusive means no clear call, values can overlap the other calls;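 further: 0% = vehicle wells and 100% = reference inhibitor control wells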
Target sequence (P9WHJ3 whole entry, looked up, canonical isoform): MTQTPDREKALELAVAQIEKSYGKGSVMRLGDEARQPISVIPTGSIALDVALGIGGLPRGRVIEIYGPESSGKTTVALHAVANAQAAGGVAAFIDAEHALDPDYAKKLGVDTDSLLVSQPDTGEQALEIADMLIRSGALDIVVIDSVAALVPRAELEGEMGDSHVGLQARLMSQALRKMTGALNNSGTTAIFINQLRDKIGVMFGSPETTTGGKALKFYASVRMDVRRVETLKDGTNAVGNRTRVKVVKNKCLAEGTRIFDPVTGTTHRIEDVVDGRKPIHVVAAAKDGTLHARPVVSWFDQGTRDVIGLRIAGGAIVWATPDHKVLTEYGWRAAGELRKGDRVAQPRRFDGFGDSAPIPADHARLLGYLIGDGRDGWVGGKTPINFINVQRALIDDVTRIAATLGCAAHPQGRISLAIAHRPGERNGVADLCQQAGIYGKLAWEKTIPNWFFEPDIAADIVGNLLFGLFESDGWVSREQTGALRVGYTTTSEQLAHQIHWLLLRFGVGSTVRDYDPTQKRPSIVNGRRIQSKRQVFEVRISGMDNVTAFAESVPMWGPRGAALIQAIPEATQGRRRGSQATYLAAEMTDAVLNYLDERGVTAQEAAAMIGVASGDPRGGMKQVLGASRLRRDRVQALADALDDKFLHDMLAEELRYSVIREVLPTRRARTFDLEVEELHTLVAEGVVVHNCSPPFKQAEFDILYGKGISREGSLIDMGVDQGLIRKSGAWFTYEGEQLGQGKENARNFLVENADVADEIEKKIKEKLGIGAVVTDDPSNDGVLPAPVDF
Mtb growth = M. tuberculosis H37Rv growth inhibitors, H37Rv strain (AID 1626). one-dose inhibition, % at 10 µM; IC50 in µM for titrated hits. 220,000 tested, 0.95% active. M. tuberculosis H37Rv growth inhibition; higher % means a stronger effect;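 active means confirmed in a dose series; inconclusive means inhibition above 80% but not taken into the dose series; inactive means below 80% or under 30% at every dose of the series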;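 further: bacteria incubated seven days before Alamar blue readout; 0% = bacteria only wells and 100% = bacteria with antibiotic wells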
Arbovirus inh = antivirals against arbovirus infection, primary screen, cell-based, full library, 10K replicate subset; AID 1251, 2008; arbovirus infection cell-based antiviral screen; 200,000 tested, 0.37% active; inhibition, % at 10 µM;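 active means inhibition from about 30%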;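 further: bluetongue infection of BSR cells; cell survival read as ATP light after 72 h; 0% = infected wells without compound and 100% = uninfected wells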
Arbovirus inh repeat = recorded beside Arbovirus inh, whose call it bears; inhibition, %; measured here: 10K subset replicate screen; many hits read low in the repeat;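 first of two repeat runs on a subset; 0% = infected and 100% = uninfected wells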
* = called active by the depositor; ? = inconclusive; . = no result given. A portion of the library. The share of hits here may be higher or lower than overall.

SMILES	YopH PTP inh	Mtb betalactam	RecA splice inh	Mtb growth	Arbovirus inh	others
O=C(Cn1cc(S(=O)(=O)Cc2cccc(F)c2)c2ccccc21)N1CCOCC1	.	-16	-1.2	.	.
O=C(O)CSc1nc(-c2ccc(Cl)cc2)nc2c1oc1ccccc12	-20	-3	3.4	2%	35*
CC(C)c1ccc(CC(C)C2C3=C(CCCC3=O)OC3=C2C(=O)CCC3)cc1 (stereo not drawn)	-1	23	17	7%	0
Nc1nnc(CSc2ccc(Cl)cc2)s1	-31	7	-1.6	19%	2
Cc1onc(C(=O)N2C(C)CCCC2C)c1[N+](=O)[O-] (stereo not drawn)	11	2	2.1	-3%	4
COc1cc2c(cc1NC(=O)CCCCCN1C(=O)CCC1=O)oc1ccccc12	12	.	-2.4	75%	-9
CCOc1ccc2ccccc2c1/C=N/NC(=O)c1cc(C)[nH]n1	.	0	-4.5	.	.
Cn1nnnc1SCc1nc2scc(-c3ccccc3)c2c(=O)[nH]1	.	-8	.	-8%	.
O=C(NCc1ccc(F)cc1)c1cc2c(s1)CCCC2	-9	0	-4.4	-1%	5
CCOC(=O)N1CCN(C(=O)c2ccc(OC)c(OC)c2)CC1	-2	1	.	2%	9
COC(=O)c1sccc1NC(=O)Nc1ccc(OC)cc1OC	.	-3	4.1	.	.
CC(NC(=O)C1CCC1)c1ccc(Cl)cc1 (stereo not drawn)	-19	-3	1.7	-7%	5

Random excerpt: 6 compounds from above
SMILES	YopH PTP inh	Mtb betalactam	RecA splice inh	Mtb growth	Arbovirus inh	others
CCOC(=O)N1CCN(C(=O)c2ccc(OC)c(OC)c2)CC1	-2	1	.	2%	9
COC(=O)c1sccc1NC(=O)Nc1ccc(OC)cc1OC	.	-3	4.1	.	.
Cc1onc(C(=O)N2C(C)CCCC2C)c1[N+](=O)[O-] (stereo not drawn)	11	2	2.1	-3%	4
CCOc1ccc2ccccc2c1/C=N/NC(=O)c1cc(C)[nH]n1	.	0	-4.5	.	.
COc1cc2c(cc1NC(=O)CCCCCN1C(=O)CCC1=O)oc1ccccc12	12	.	-2.4	75%	-9
CC(C)c1ccc(CC(C)C2C3=C(CCCC3=O)OC3=C2C(=O)CCC3)cc1 (stereo not drawn)	-1	23	17	7%	0

Next results follow.
SMILES	YopH PTP inh	Mtb betalactam	RecA splice inh	Mtb growth	Arbovirus inh	others
CN1CCN(CC(=O)NC23CC4CC(CC(C4)C2)C3)CC1	.	-5	0.3	0%	.
Cc1ccc(Oc2nc3ccccc3n3c(C)nnc23)c(C)c1	-16	5	0.3	-15%	5
Cc1cnc(CN2CCCC(C(=O)c3ccc4c5c(cccc35)CC4)C2)[nH]1 (stereo not drawn)	.	47	2.7	4%	-9
COc1cccc(-n2c(Cc3cc(=O)[nH]c(=O)[nH]3)nnc2SC(C)C)c1	.	-8	-1.9	-1%	1	Arbovirus inh repeat=7
CCOC(=O)C1CCCN(C(=O)COc2ccccc2O)C1 (stereo not drawn)	-21	2	-1.9	-10%	9
O=C(Nc1ccc2c(c1)OCO2)C1CC(=O)N(c2ccc3c(c2)OCCO3)C1 (stereo not drawn)	.	4	-1.0	-10%	3
CC(=O)Nc1nc2ccccc2n1CCN(C)C	-28	-10	1.3	-1%	10	Arbovirus inh repeat=0
Cn1cccc1C(=O)NC(=O)COC(=O)CC12CC3CC(CC(Br)(C3)C1)C2	-12	5	-0.6	-2%	4
CCOc1ccc(N/C(SC)=C(/C#N)C(N)=O)cc1	-30	-7	1.6	-2%	-4
O=C(CN1C(=O)CCSc2ccccc21)Nc1ccc2c(c1)OCCO2	0	-3	1.1	-5%	-4
O=C(CSc1nc2c(sc3ccccc32)c(=O)n1CCCN1CCCC1)NCc1ccccc1	.	1	5.8	5%	-31
C[C@]1(C(=O)NCCCNc2ncc(C(F)(F)F)cc2Cl)C=C[C@@H](Cc2ccccc2)N1C(=O)c1ccccc1	-17	-5	18	-8%	-46
OC(COc1ccc(Cl)cc1)CN1CCN(c2cccc(Cl)c2)CC1 (stereo not drawn)	.	7	8.8	7%	.
CCCN(CCC)C(=O)CSc1ncccc1C(=O)O	-29	?	-1.6	0%	-2
Nn1c(SCC(=O)N2CCOCC2)nnc1-c1ccc(Cl)cc1Cl	-21	3	-2.8	2%	3
O=C(CSc1cn(CCNC(=O)c2cccs2)c2ccccc12)NC1CCCCC1	-37	-4	-0.9	6%	-4
CCc1ccc(C(=O)NNc2cc(Cl)ccc2Cl)cc1	.	98	5.6	80%	.
CC(=O)c1c(N2CCN(c3ccc(F)cc3)CC2)nc(=S)n(-c2ccccc2)c1C	-32	-5	-0.2	-8%	6
Cc1ccc(S(=O)(=O)NCC(=O)NCc2cc(=O)n(C)c(=O)n2C)cc1C	.	-3	0.2	.	.
CN(CC(=O)NC1CCCc2ccccc21)S(=O)(=O)c1ccc2c(c1)c(=O)n(C)c(=O)n2C (stereo not drawn)	-45	3	-0.7	5%	3	Arbovirus inh repeat=-6
Cc1ccc(-n2[nH]c(C)c(C=Nc3ccc(S(=O)(=O)Nc4nc(C)cc(C)n4)cc3)c2=O)c(C)c1	-34	1	1.3	-11%	-8
CCCOc1ccc(C(=O)C(CN2CCCC2)c2ccccc2)cc1 (stereo not drawn)	-12	100	6.0	?	-34
C/C(=N\NC(=S)Nc1cc(S(=O)(=O)N2CCOCC2)ccc1Cl)c1ccc(N2CCOCC2)cc1	.	2	-2.8	10%	.
Cc1cnc(NS(=O)(=O)c2ccc(Cl)cc2)c(Br)c1	.	-11	.	10%	.
CCc1ccc(-c2csc(NC(=O)C3=NN(c4ccccc4)C(=O)CC3)n2)cc1	-22	7	.	7%	-14
COc1nc(N)nc(CC(=O)C2CC2)n1	-16	-8	5.3	4%	-3
CCOC(=O)CCc1c(C)c(C#N)c2nc3ccccc3n2c1-n1ccnc1C	5	9	-25	-3%	2
CC(C1CC1)N(C(=O)NC1CCS(=O)(=O)C1)c1ccccc1 (stereo not drawn)	-38	1	-1.0	-1%	2
O=C(CNC(=O)c1cccc(F)c1)OCC(=O)N1CCN(C(=O)c2ccco2)CC1	.	-8	-2.1	-3%	.
C[C@H](NC(=O)Nc1ccc2c(c1)OCCO2)C(=O)O	-18	-2	-1.6	-7%	6
Cc1ccc2c(CC(=O)OCc3nc(N)nc(Nc4ccccc4C)n3)coc2c1	-25	?	2.9	-7%	0
CC(C)Sc1nnc([C@@H](N)Cc2c[nH]c3ccccc23)o1	-6	-17	5.8	-12%	10
Cn1c(NN)nc2sc3c(c2c1=O)CCC3	16	35	-4.5	-11%	-20
CCOc1ccc(NC(=O)c2cc(S(=O)(=O)N3CCOCC3)cs2)cc1	.	2	-5.6	.	.
COCCn1c(CCC(=O)O)nc2c1c(=O)[nH]c(=O)n2CC(C)C	-45	-5	-0.8	-4%	2
CCSc1sccc1C1C(C#N)=C(N)N(c2cccnc2)C2=C1C(=O)CCC2 (stereo not drawn)	-22	-6	.	-8%	2
CCOC(=O)c1cc(NC(=O)c2ccccc2)c(=O)oc1C(F)(F)F	.	.	.	-3%	4
COc1ccc(CCCc2nnc(SCC(=O)NN)o2)c(C)c1	.	4	-0.5	.	.
CSc1nc(=S)n(-c2ccc([N+](=O)[O-])cc2)c(C)c1C(C)=O	.	-9	35*	.	.
C/C(=N\NC(=O)c1nc(C)cc(C)n1)c1ccccc1	-21	12	0.5	-1%	-5
CCOc1ccc2nc(SCC(=O)NCC3CCCO3)c(C#N)cc2c1 (stereo not drawn)	.	5	2.6	.	.
COCCC(=O)N1CCC(Oc2ccc(C(=O)NCc3cccc(C)n3)cc2)CC1	.	-5	0.0	.	.
O=C(Nc1ccccc1F)C1CCCN(S(=O)(=O)c2ccccc2)C1 (stereo not drawn)	.	-7	1.0	2%	10
Cc1ccccc1N1CCN(Cc2nc(Cc3ccccc3F)no2)CC1	.	3	3.8	4%	.
CN(CC(=O)Nc1cc([N+](=O)[O-])ccc1Cl)Cc1ccc(Br)cc1	-19	5	9.0	1%	11
NC(=O)N/N=C/c1ccccc1OC(=O)c1cc2ccccc2oc1=O	.	3	-3.3	.	.
COc1cc(NS(=O)(=O)c2ccc3[nH]c(=O)[nH]c3c2)cc(OC)c1	.	-8	0.6	.	.
O=C(Cn1cnc2c(cnn2-c2ccccc2)c1=O)N1CCCc2ccccc21	-36	-9	-0.9	-11%	1

Not a retest: an excerpt of the list.
SMILES	YopH PTP inh	Mtb betalactam	RecA splice inh	Mtb growth	Arbovirus inh	others
CCOC(=O)c1cc(NC(=O)c2ccccc2)c(=O)oc1C(F)(F)F	.	.	.	-3%	4
COc1ccc(CCCc2nnc(SCC(=O)NN)o2)c(C)c1	.	4	-0.5	.	.
CSc1nc(=S)n(-c2ccc([N+](=O)[O-])cc2)c(C)c1C(C)=O	.	-9	35*	.	.

Remaining list, next part:
SMILES	YopH PTP inh	Mtb betalactam	RecA splice inh	Mtb growth	Arbovirus inh	others
O=C(CNC(=O)c1ccc(Cl)cc1)c1ccc(Cl)cc1	.	92	-2.2	.	.
CCc1ccc(OCC(=O)N(Cc2cccs2)C2CCS(=O)(=O)C2)cc1 (stereo not drawn)	.	-6	3.4	.	.
O=C(NCC1CCCO1)c1ccc(NC(=O)C2C3C=CC(C3)C2C(=O)O)cc1 (stereo not drawn)	-32	6	5.3	-2%	-2
C=C(C)CN=C1NN=C(c2cc(C)n(-c3ccc(C)cc3)c2C)CS1	6	4	12	6%	5
CCCOc1ccc(C(=O)O)cc1	.	-11	-0.6	-13%	.
Cc1cc(NC(=O)CSc2nc3c(C)c(C)ccc3cc2C)no1	.	-6	2.1	.	.
O=c1[nH]c(-c2ccccn2)nc(C(F)(F)F)c1Br	.	72	-0.3	0.49µM*	-22
COC(=O)C1=CC(C(=O)c2cccs2)=NN(c2ccc(OC)cc2)C1C(=O)OC (stereo not drawn)	-27	6	15	5%	-18
Cc1cccc(CSC(Nc2ccc(F)cc2)=C(C#N)C#N)c1	-18	-3	53*	-2%	-25
COC(=O)CCC(=O)OC1(C)C(=O)C=C2C=C(C3CC3)N(c3ccc(CO)cc3)C=C2C1=O (stereo not drawn)	.	11	-23	3%	.
CC(C)(C)c1cc(C(=O)Nc2cccc3ccccc23)ccn1	-33	1	3.6	0%	1
O=C(N/N=C\c1ccc(OCC(=O)N2CCCC2)cc1)C(=O)Nc1ccccc1F	-22	-9	-2.4	?	-3

5 compounds out of the list, ordered by length of the SMILES, rising:
SMILES	YopH PTP inh	Mtb betalactam	RecA splice inh	Mtb growth	Arbovirus inh	others
O=C(CNC(=O)c1ccc(Cl)cc1)c1ccc(Cl)cc1	.	92	-2.2	.	.
C=C(C)CN=C1NN=C(c2cc(C)n(-c3ccc(C)cc3)c2C)CS1	6	4	12	6%	5
O=C(NCC1CCCO1)c1ccc(NC(=O)C2C3C=CC(C3)C2C(=O)O)cc1 (stereo not drawn)	-32	6	5.3	-2%	-2
COC(=O)C1=CC(C(=O)c2cccs2)=NN(c2ccc(OC)cc2)C1C(=O)OC (stereo not drawn)	-27	6	15	5%	-18
COC(=O)CCC(=O)OC1(C)C(=O)C=C2C=C(C3CC3)N(c3ccc(CO)cc3)C=C2C1=O (stereo not drawn)	.	11	-23	3%	.

Next part
SMILES	YopH PTP inh	Mtb betalactam	RecA splice inh	Mtb growth	Arbovirus inh	others
Cn1c(CO)cnc1SCc1ccccc1	-27	-5	-2.0	-6%	6
N#CCCCn1c(O)c(N=NC(=O)C(O)c2ccccc2)c2ccccc21 (stereo not drawn)	.	2	7.6	-6%	.
O=C(NC1CCCCCC1)c1ccc(-n2cnnc2)cc1	.	-9	3.4	.	.
CCOc1ccc(S(=O)(=O)NCCC(=O)NC2=NCCS2)cc1	-52	-6	0.5	2%	0
CCCNC(=O)COc1ncnc2sc(C)c(C)c12	7	1	-1.1	-7%	2
COc1ccc(CN2CCCC(C(=O)c3ccc(Cl)cc3)C2)cc1Cn1cccn1 (stereo not drawn)	.	-2	1.5	0%	-5
NC(=O)C1CCN(C(=S)c2cccs2)CC1	-4	-11	1.2	.	2
Cc1csc(NC(C)c2nc3cc(C(F)(F)F)ccc3n2CCCO)n1 (stereo not drawn)	.	2	0.7	-7%	.
O=C(O)Cn1cc(C(=O)c2cccs2)c2ccccc21	-54	-7	-0.4	1%	-1
O=C(CSC(=S)N1CCSCC1)c1ccc(Cl)cc1	.	87	-0.6	?	8
c1cncc(-c2nc3c(ccc4ccccc43)[nH]2)c1	-47	19	4.4	5%	3
CCOC(=O)Cc1nnc(NC(=O)C(CC)Sc2nnc3c4ccccc4n(C)c3n2)s1 (stereo not drawn)	5	-10	-3.5	-3%	-1
COC(=O)CCCC(=O)Nc1c(F)c(F)c(F)c(F)c1F	2	11	0.0	-8%	12
CC(C)C(=O)Nc1ccc(NC(=O)c2ccccc2Cl)nc1	-44	-7	-0.2	1%	-3

Assay outcomes (PubChem BioAssay)
